High-throughput results: PubChem, National Center for Advancing Translational Sciences (NCATS)
RE007 growth inh – less growth of the S. pombe RE007 Vpr strain. AID 651644. hit rate 0.21% among 360,000. S. pombe RE007 Vpr strain, BacTiter-Glo ATP luminescence, 24 h; control for the full effect not named in the record. Potency, µM (series often up to 92.2 µM), without a hit: top-dose activity change, negative = less growth; active = well fitted falling curve with a large enough effect; inconclusive = small, poorly fitted or top-dose-only effect; inactive = no such curve, though single readings can be large or run the other way;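 further: on the % scale 0 is the no-effect control and ±100 the full control effect; nearly all actives have a fitted effect of over 50% in size; the assay follows cell death caused by Vpr and the record does not say whether a fall means rescue or toxicity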
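Fission yeast RE007 carrying one integrated HIV-1 vpr copy, seeded at OD 0.01 in PMG+AL medium with 23 nL pinned compound. Grown 24 h at 30 degrees; viability read by BacTiter-Glo luminescence after 5 min.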
Cruzain noTriton – cruzain (T. cruzi) inhibition without detergent; hit rate 2.3% among 200,000; purified cruzain, Z-FR-AMC fluorescence, no detergent; Potency, µM, for the others: max response, negative = inhibition, actives largely listed as inhibitors; AID 1476; P25779; active means well fitted curve in the direction sought with a large enough effect; inconclusive means small, poorly fitted or top-dose-only effect, or another doubt; inactive means no such curve, though single readings can be large; an effect the other way counts as inactive or inconclusive;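 further: plate controls were enzyme without inhibitor for no effect and buffer without enzyme for full effect; nearly all actives have a fitted effect of over 40% in size; top concentration of the series not given in the record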
Target sequence (P25779 123-467 limits assumed): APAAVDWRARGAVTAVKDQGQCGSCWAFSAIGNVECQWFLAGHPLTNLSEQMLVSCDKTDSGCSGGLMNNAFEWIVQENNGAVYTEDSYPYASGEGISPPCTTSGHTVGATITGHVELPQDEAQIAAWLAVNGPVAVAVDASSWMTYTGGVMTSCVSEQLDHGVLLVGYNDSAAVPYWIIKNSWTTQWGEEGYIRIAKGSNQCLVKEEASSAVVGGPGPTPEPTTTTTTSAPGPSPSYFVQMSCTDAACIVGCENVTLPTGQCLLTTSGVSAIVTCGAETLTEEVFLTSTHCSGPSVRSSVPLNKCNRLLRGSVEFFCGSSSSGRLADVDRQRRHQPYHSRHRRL
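Detergent-free condition (0.00005% Triton X-100) in acetate buffer pH 5.5 with DTT. 1.5 nM enzyme and compound were pre-mixed 15 min, then 2 uM Z-FR-AMC substrate added; reaction progress from fluorescence change between first and third reads (60 s).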
NS1 inh – inhibitors of influenza NS1 protein function; S. cerevisiae slowed by influenza A NS1, growth recovery by OD600; Potency, µM (titrated, usually from 46.1 µM), for inactives: at the top dose activity, positive = more growth; hit rate 0.4% among 270,000; AID 2326; further: actives are rising curves; nearly all actives have a fitted effect of over 50% in size
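OD600 was taken as the measure of yeast growth restored by compound in an NS1-expressing S. cerevisiae strain. Cells had been washed out of glucose medium and diluted 1:100 into galactose -URA medium, pH 6.0.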
LASV entry inh – blocks Lassa virus binding to or entry into cells | Lassa virus pseudotype entry inhibition, cell reporter; control for the full effect not named in the record | AID 540256 | Potency, µM (doses to about 37.9 µM), inactives show at the highest dose activity change, negative = inhibition, usual class: inhibitors | hit rate 1.2% among 300,000; active means well fitted inhibition curve with a large enough effect; inconclusive means small, poorly fitted or top-dose-only effect, or effect the other way; inactive means flat fitted curve, though single readings scatter; tested in HEK293 cells; further: on the % scale 0 is the no-effect control and ±100 the full control effect; nearly all actives have a fitted effect of over 50% in size; luciferase read-out
2A StopGo – lowers the luciferase signal of an FMDV 2A StopGo reporter; hit rate 1.2% among 410,000; Potency, µM (top dose mostly 57.9 µM), for the others: at the highest dose signal change, negative = less light; human cells with a luciferase reporter of 2A StopGo recoding; control for the full effect not named in the record; active = well fitted falling curve with a large enough effect; inconclusive = small, poorly fitted or top-dose-only effect; inactive = no such curve, though single readings can be large or run the other way; tested in HEK293T cells; further: on the % scale 0 is the no-effect control and ±100 the full control effect; nearly all actives have a fitted effect of over 45% in size; luciferase light after 4 h
Cruzain Triton – cruzain (T. cruzi) inhibition with detergent; Potency, µM, without a hit: max response, negative = inhibition, hits mostly inhibitors; P25779; hit rate 0.43% among 200,000; purified cruzain, Z-FR-AMC fluorescence, 0.01% Triton; active means well fitted curve in the direction sought with a large enough effect; inconclusive means small, poorly fitted or top-dose-only effect, or another doubt; inactive means no such curve, though single readings can be large; an effect the other way counts as inactive or inconclusive;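 further: plate controls were neutral wells for no effect and buffer without enzyme for full effect; nearly all actives have a fitted effect of over 40% in size; top concentration of the series not given in the record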
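Detergent-containing run (0.01% Triton X-100) in acetate buffer pH 5.5 with 5 mM DTT: enzyme at 1.5 nM final, 15 min compound preincubation at room temperature, then 2 uM Z-FR-AMC substrate. Activity taken as 60 s fluorescence increase at 360/450 nm.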
SARS PLpro yeast – SARS-CoV PLP inhibition in yeast. hit rate 0.19% among 330,000. Potency, µM (top dose mostly 32.9 µM), inactives show at the top dose activity, positive = growth rescue. S. cerevisiae expressing SARS-CoV PLpro, growth rescue; control for the full effect not named in the record; further: 0% is about no effect; nearly all actives have a fitted effect of over 55% in size; growth read by luminescence after 48 h
Marburg entry inh – inhibitors of Marburg virus binding or cell entry; Marburg virus pseudotyped entry inhibition, cell reporter; control for the full effect not named in the record; about a third of the inactives were read at about 46 µM; Potency, µM (doses to about 37.8 µM), without a hit: top-dose activity change, negative = inhibition, most hits filed as inhibitors; hit rate 1.8% among 300,000; AID 540276; active = well fitted inhibition curve with a large enough effect; inconclusive = small, poorly fitted or top-dose-only effect, or effect the other way; inactive = flat fitted curve, though single readings scatter; tested in HEK293 cells; about a fifth of its hits are not listed in these tables; further: on the % scale 0 is the no-effect control and ±100 the full control effect; luciferase read-out
Active calls of the source: *; ? = inconclusive; . = no result given; [ ] = dose if it differs, or a comment. Unless noted, the call rests on the fitted dose curve; in most records, active means well fitted rising curve with a large enough effect; inconclusive means small, poorly fitted or top-dose-only effect; inactive means no such curve, though single readings can be large or run the other way. Potency means the concentration at half of the fitted maximal effect. Rows are unselected; overall some 4.7% were active at least once.

Below each compound: LASV entry inh	2A StopGo	Cruzain noTriton	Marburg entry inh	RE007 growth inh	Cruzain Triton	SARS PLpro yeast	NS1 inh
1. CCCCC(=O)Nc1ccccc1N1CCN(c2ccccc2)CC1
    22.1%[46.1 µM]	-4.2%	.	-12.0%[46.1 µM]	14.2%	.	-3.7%	.
2. Cc1ccc(-c2nc3ccccc3c(=O)n2CCN2CCOCC2)cc1
    0.8%	11.0%	-3.3%	?	22.6%	-1.3%	0.7%	1.7%
3. CCCNCc1cc(OC)c(OCCC)cc1Cl
    12.8%	-16.8%	1.0%	5.2%	5.8%	2.2%	-4.3%	6.4%
4. Cc1cc(=O)[nH]c(N/N=C/c2c(O)n(-c3ccccc3)c(=O)c3ccccc23)n1
    12.4%	-21.5%	1.9%	2.9%	.	-1.3%	?	10µM*
5. COc1ccc(/C=C/C(=O)O)cc1S(=O)(=O)Nc1ccc2c(c1)OCO2
    .	-8.1%	.	.	-0.3%	.	-0.4%	5.2%
6. Cc1cc(C)c(OCCCCn2cnc3ccccc3c2=O)c(C)c1
    5.0%	?	?	-16.4%	-4.5%	-6.9%	7.5%	-4.3%
7. Cc1ccc(S(=O)(=O)Nc2cc(C(C(=O)OC(C)C)C(=O)C(F)(F)F)c(O)c3ccccc23)c(C)c1 (stereo unspecified)
    ?	15.4%	9.8%	6.7%	-6.0%	-10.1%	-66.4%	16.4%
8. O=C(COC(=O)c1ccccc1Nc1ccccc1)NCc1ccccc1
    8.3%	6.5%	17.8%	15.0%	-4.4%	-1.3%	-11.9%	-16.6%
9. CC(=O)N1CC(C)Oc2ccc(S(=O)(=O)Nc3ccc(Cl)cn3)cc21 (stereo unspecified)
    -25.8%[46.1 µM]	42.7%[activator]	.	10.6%[46.1 µM]	4.7%	.	-2.4%	2.3%
10. CCOC(=O)c1c(-c2ccc(C)cc2)csc1NC1=NS(=O)(=O)c2ccccc21
    3.8%	2.4%	7.94µM*	-6.2%	?	-4.8%	3.3%	0.8%
11. COC(=O)c1cc(S(=O)(=O)NCc2ccc(Br)cc2)c[nH]1
    .	13.7%	.	.	2.1%	.	20.9%	3.9%
12. O=C(NC1CCCC1)c1cccc(Cl)c1
    0.8%	24.2%	.	2.1%[46.1 µM]	16.5%	.	-2.5%	.
13. Cc1cc(NC(=O)c2c(Cl)cccc2Cl)no1
    .	-15.6%	.	.	8.9%	.	-1.2%	2.9%
14. Nc1nc2n(n1)C(c1cccc(Br)c1)CC(c1ccc(F)cc1)N2 (stereo unspecified)
    .	0.0%	13.4%	.	5.5%	-4.3%	20.5%	?
15. CCOC(=O)N(C)OC(=O)Nc1ccc(Cl)c(Cl)c1
    5.2%	.	4.6%	14.5%	1.2%	-5.5%	-11.3%	-65.5%
16. CN(C)S(=O)(=O)c1ccc2c(c1)nc(CCC(=O)Nc1ccc3c(c1)OCO3)n2C
    3.2%	3.0%	-10.1%	-13.1%	2.5%	0.7%	-13.4%	23.0%
17. CO/N=C/c1ccc(N2CCN(C(=O)c3ccc(F)cc3)CC2)c([N+](=O)[O-])c1
    ?	20µM*	-20.1%	?	-5.9%	-5.5%	-19.5%	-10.7%
18. CCOc1ccc(C(=O)c2cc([N+](=O)[O-])ccc2N2CCOCC2)cc1
    ?	?	-0.8%	?	-13.7%	-9.0%	-31.2%	-7.7%
19. COc1ccc2c(c1)C(=C(C#N)C#N)C(=O)N2CCc1ccccc1
    -6.0%	-22.3%	.	-25.9%[46.1 µM]	-16.4%	.	-1.7%	-7.9%
20. CCc1ccc(NC(=O)c2ccc3c(O)c(S(=O)(=O)c4ccc(Cl)cc4)c(=O)[nH]c3c2)cc1
    -1.9%[46.1 µM]	-5.5%	-4.8%	.	.	-5.0%	.	.
21. CCC(C)(C)NC(=O)CN(Cc1cccs1)C(=O)CNS(=O)(=O)c1ccc(F)cc1
    .	16.1%	.	.	16.5%	.	1.5%	0.3%
22. O=C(NCc1ccc2c(c1)OCO2)c1ccc2c(c1)N(Cc1cccc(Cl)c1)C(=O)c1ccccc1S2
    -2.5%[46.1 µM]	-1.0%	12.6µM*	.	.	0.5%	.	.
23. O=C(NCc1ccc(Cl)cc1)c1ccccc1CCc1ccccc1
    -21.3%	-29.6%	-1.1%	-26.8%	-1.1%	0.6%	9.2%	2.2%
24. COc1ccccc1CN(Cc1nc2ccccc2c(=O)[nH]1)C(=O)Nc1cccc(C)c1
    -17.9%	.	-5.1%	?	-0.2%	-5.4%	-7.0%	-57.8%
25. C=CCn1c(-c2ccc3ncccc3c2)n[nH]c1=S
    .	-0.7%	.	.	3.6%	.	2.4%	?
26. Cc1noc(C)c1C(=O)N1CC(C)OC(C)C1 (stereo unspecified)
    -5.0%	-8.3%	-10.5%	?	10.0%	0.4%	3.6%	0.9%
27. O=C(O)CC1CCS(=O)(=O)C1 (stereo unspecified)
    6.0%	11.1%	-0.4%	-8.7%	17.7%	1.2%	3.5%	-1.7%
28. COc1ccc(C(=O)NCCc2ccc(F)cc2)cc1OC
    24.0%	0.0%	.	?	0.7%	.	-1.9%	-4.0%
29. CNC(=O)NC(=O)C(C)OC(=O)CCCc1nc2ccccc2s1 (stereo unspecified)
    -6.2%	-9.7%	.	-27.8%[46.1 µM]	8.0%	.	1.6%	.
30. COc1cc(NC(=O)CNC(c2ccccc2)c2ccccc2)cc(OC)c1OC
    ?	?	.	-39.3%	-2.4%	.	-1.9%	-7.8%

Rewritten with each value named: entries from further up.
29	CNC(=O)NC(=O)C(C)OC(=O)CCCc1nc2ccccc2s1 (stereo unspecified)
  LASV entry inh: -6.2%; 2A StopGo: -9.7%; Cruzain noTriton: .; Marburg entry inh: -27.8%[46.1 µM]; RE007 growth inh: 8.0%; Cruzain Triton: .; SARS PLpro yeast: 1.6%; NS1 inh: .
30	COc1cc(NC(=O)CNC(c2ccccc2)c2ccccc2)cc(OC)c1OC
  LASV entry inh: ?; 2A StopGo: ?; Cruzain noTriton: .; Marburg entry inh: -39.3%; RE007 growth inh: -2.4%; Cruzain Triton: .; SARS PLpro yeast: -1.9%; NS1 inh: -7.8%

(next part)
Below each compound: LASV entry inh	2A StopGo	Cruzain noTriton	Marburg entry inh	RE007 growth inh	Cruzain Triton	SARS PLpro yeast	NS1 inh
31. C/C(Cc1ccccc1)=N\NC(=O)CNC(=O)c1ccc(F)cc1
    -1.7%[46.1 µM]	-12.4%	.	?	-8.4%	.	-5.9%	-13.8%
32. Cc1cc2nc3n(c2cc1C)CC1CC(C(=O)NCc2cccc(C(F)(F)F)c2)N(C)C31 (stereo unspecified)
    .	-16.4%	.	.	-0.6%	.	0.1%	2.7%
33. COc1ccc(-c2nnnn2C(C)C)cc1S(=O)(=O)Nc1ccccc1
    .	0.6%	.	.	4.9%	.	0.3%	3.0%
34. O=C(/C=C/c1ccc(S(=O)(=O)N2CCOCC2)cc1)Nc1cc(F)ccc1F
    -29.2%[46.1 µM]	4.2%	.	?	-11.4%	.	2.1%	.
35. CN(C)c1ccc(CNC23CN4CN(CN(C4)C2)C3)cc1
    -0.4%	2.3%	4.4%	5.1%[46.1 µM]	-5.9%	2.3%	-0.6%	-2.3%
36. Clc1ccc(C2=CSC3=Nc4cccc5cccc(c45)N23)cc1
    2.3%	2.7%	?	?	8.6%	4.0%	-45.6%	19.8%
37. COc1ccc(CNC(=O)c2cc3cccc4c3n2CC(C)S4)cc1OC (stereo unspecified)
    -2.5%[46.1 µM]	-8.7%	?	.	.	-15.1%	.	.
38. O=C(NCCCO)C(=O)NCc1ccccn1
    4.1%	4.8%	.	15.6%[46.1 µM]	11.6%	.	0.6%	.
39. N=C(N)SCc1nc2ccccc2c(=O)n1-c1ccccc1Cl
    -5.3%	53.5%[activator]	-19.7%	?	6.1%	-1.3%	-0.8%	7.3%
40. O=C(NCCc1ccc(C(F)(F)F)cc1)C1COc2ccccc2O1 (stereo unspecified)
    10.8%	-5.0%	.	4.4%	-17.4%	.	8.3%	12.2%
41. O=C(NCc1nnc(SCC(=O)N2CCCC2)o1)c1cccc(C(F)(F)F)c1
    8.8%	-19.2%	.	-8.0%	0.0%	.	2.3%	-3.7%
42. Nc1nnc(CC(=O)N/N=C\c2cc([N+](=O)[O-])ccc2O)s1
    -2.6%[46.1 µM]	-11.8%	-1.3%	17.6%[46.1 µM]	-16.9%	-10.6%	-4.4%	-33.8%
43. O=C(CSc1nc2ncccc2[nH]1)c1ccc2c(c1)OCO2
    .	57.9%[activator]	.	.	3.1%	.	-0.3%	1.1%
44. COc1ccc(OC)c(N(CC(=O)NCCSc2ccccc2)S(C)(=O)=O)c1
    -19.2%	-10.5%	10.1%	-2.4%	-1.2%	1.0%	5.6%	-33.5%
45. Cc1cc(=O)c2n(Cc3ccc(Cl)cc3)nc[n+]2[nH]1
    1.5%	-8.5%	-4.8%	3.8%	13.1%	-2.3%	0.6%	-1.1%
46. Cc1cc(Cl)ccc1NC(=S)N1CCC(C(N)=O)(N2CCCCC2)CC1
    ?	13.2%	3.7%	5.3%	-5.2%	-0.2%	4.4%	-2.3%
47. O=C(Nc1cccc(S(=O)(=O)Nc2ccc(Cl)cc2)c1)c1ccc2c(c1)OCCO2
    ?	2.3%	?	?	-12.2%	-6.1%	2.3%	0.5%
48. COC(=O)c1ccccc1NC(=S)NC(=O)COc1ccccc1
    3.2%	-25.8%	6.5%	23.2%	-10.7%	-5.7%	-6.2%	12.2%
49. Cc1ccc(S(=O)(=O)N/N=C2/CC(c3ccccc3)Oc3ccccc32)cc1 (stereo unspecified)
    16.6%	13.7%	25.1µM*	5.0%[46.1 µM]	-17.6%	-2.6%	1.8%	?
50. CC(C)(C)N1CSC(=S)N(Cc2ccccc2)C1
    3.8%	?	.	5.3%	0.3%	.	1.5%	.
51. CC(C(=O)N/N=C/c1ccc(N(C)C)c(Br)c1)N(c1ccccc1)S(C)(=O)=O (stereo unspecified)
    -19.1%	-19.2%	-4.1%	-27.0%	0.8%	1.3%	-1.2%	-6.3%
